# Source: PubChem BioAssay (ICCB-Longwood Screening Facility, Harvard Medical School)
# UCH37 DUB inh – blocks the human deubiquitinase UCH37. Q9Y5K5. purified proteasome/UCH37, Ub-AMC cleavage fluorescence. inhibition, % (no concentration beside the values). actives 0.33% (n = 330,000);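 active = mean of two replicates above 20%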;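 note: 0% = compound-free wells with enzyme and 100% = wells lacking proteasome; stock transfer was 100 nL into about 20 µL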
# Target sequence (Q9Y5K5 whole entry, looked up): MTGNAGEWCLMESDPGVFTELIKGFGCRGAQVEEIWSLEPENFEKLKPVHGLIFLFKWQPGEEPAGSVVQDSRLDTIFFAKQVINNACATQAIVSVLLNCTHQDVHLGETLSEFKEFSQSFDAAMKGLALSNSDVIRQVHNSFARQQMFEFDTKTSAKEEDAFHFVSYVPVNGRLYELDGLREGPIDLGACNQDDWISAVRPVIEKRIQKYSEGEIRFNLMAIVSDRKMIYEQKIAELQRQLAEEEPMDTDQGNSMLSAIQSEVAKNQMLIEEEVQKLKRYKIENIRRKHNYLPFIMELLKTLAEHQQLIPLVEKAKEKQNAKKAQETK
#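 Schedule: 30 min plus 25 min, room temperature / Material: human UCH37 within purified proteasomes / Technique: AMC fluorescence intensity at 355/460 nm / Buffer or medium: pH 7.4 Tris-HCl (50 mM) with ovalbumin, ATP-MgCl2, DTT / Controls: wells without proteasome as full block, compound-free enzyme plus substrate as uninhibited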
# Ecoli growth – blocks Escherichia coli growth. OD600, 23 h; hits give low values. OD600 absorbance (no concentration beside the values). actives 0.21% (n = 330,000);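 active = OD600 absorbance below the run mean of sample wells minus 3.6 SD, in any replicate, cut at about 0.56 in these data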;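 note: stock transfer was 300 nL into about 60 µL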
# Numbers without * were called inactive. Some of the compounds tested, so the mix of outcomes need not match the whole.
# Results follow in this order: UCH37 DUB inh | Ecoli growth
NC(=O)c1c(N=Cc2cccnc2)sc2c1CCCC2
→ -11.5 | 0.681
CN1CCN(N=Cc2nc(-c3ccc(Cl)cc3)n3ccccc23)CC1
→ 5.4 | 0.657
Cc1cc(=O)oc2cc(OCC(=O)NN=Cc3ccccc3[N+](=O)[O-])ccc12
→ 0.8 | 0.666
Cc1cc(C)nc(SCC(=O)NN=Cc2cccn2-c2ccc(O)cc2)n1
→ 1.9 | 0.684
Cn1c(=O)c2c(ncn2CC(=O)NN=C/C=C\c2ccccc2[N+](=O)[O-])n(C)c1=O
→ 0.9 | 0.702
COc1ccc(-c2ccc(C=NNC(=O)Cc3nnc(N)s3)o2)cc1Cl
→ -69.8 | 0.663
NCCCCCC(=O)NN=Cc1ccc2nccnc2c1
→ 6.6 | 0.682
COc1ccc(CC(=O)NN=Cc2c(C)n(C)c3ccccc23)cc1OC
→ 7.2 | 0.629
C(=NN(Cc1ccccc1)c1ccccc1)c1cccnc1
→ 3.2 | 0.645
CC(=NNC(=O)c1ccc(CSc2nncn2C)cc1)c1ccc(C#N)cc1
→ 1.8 | 0.611
Cn1ncc([N+](=O)[O-])c1C(=O)NN=Cc1c[nH]c2ccccc12
→ 12.2 | 0.709
NC(=O)NN=Cc1cn(-c2ccccc2)nc1-c1cccs1
→ -0.9 | 0.692
C=C(C)C1CC=C(C)C(=NNC(=O)CCC(=O)Nc2ccc(C)c(C)c2)C1 (centres undefined)
→ 1.5 | 0.7
COc1ccc(C=NNC(=O)CCc2nc3ccccc3[nH]2)cc1
→ 4.7 | 0.62
Cc1n[nH]c(=S)n1N=Cc1ccccc1OCc1ccc(Cl)cc1
→ 2.4 | 0.707
Cc1ccc(C=Nn2c(-c3cccs3)n[nH]c2=S)cc1
→ 6.3 | 0.762
CC(C)CNC(=O)CC(=O)NN=Cc1ccc(F)cc1
→ 1.0 | 0.699
O=C(NN=C(c1ccccc1)c1cccnc1)c1ccc(O)cc1
→ 4.1 | 0.703
CC(=NNC(=O)CON=C(C)c1cccs1)c1ccc(N)cc1
→ 2.4 | 0.674
C=CCc1c(C)nc(C)nc1NN=Cc1ccccc1O
→ 4.1 | 0.663
Cc1ccc(C=NNC(=O)c2ccc(N(C)S(=O)(=O)c3ccccc3)cc2)cc1
→ 0.9 | 0.59
CC(=NNC(=O)COc1ccc(C#N)cc1)c1ccccc1OC(F)F
→ 3.4 | 0.685
O=C(NN=CC(c1ccccc1)c1ccccc1)c1ccccc1F
→ 0.4 | 0.722
CCOC(=O)c1c(C)[nH]c(C(=O)NN=Cc2ccccc2O)c1C
→ -22.1 | 0.673
CC(=O)Nc1ccccc1NC(=O)CC(C)=NNC(=O)c1ccccn1
→ 0.1 | 0.646
CCOc1ccc(-c2c(C(=O)NN=C(C)c3ccco3)nnn2-c2nonc2N)cc1
→ -28.1 | 0.707
CCCCC(C)=NNC(=O)Nc1ccccc1
→ 2.9 | 0.682
CCN(CC)c1ccc(C(=O)NN=C(C)c2ccc(OC)c(OC)c2)cc1
→ 9.6 | 0.642
COc1cc(C=NNC(=O)Cc2ccccc2)ccc1Oc1ccc([N+](=O)[O-])cc1[N+](=O)[O-]
→ 5.4 | 0.705
Cc1cc(NN=Cc2ccc(Cl)cc2Cl)nc(NCc2ccccc2)n1
→ -15.8 | 0.686

# Overlap with the part before: five entries, then new ones.
# Results follow in this order: UCH37 DUB inh | Ecoli growth
CCOc1ccc(-c2c(C(=O)NN=C(C)c3ccco3)nnn2-c2nonc2N)cc1
→ -28.1 | 0.707
CCCCC(C)=NNC(=O)Nc1ccccc1
→ 2.9 | 0.682
CCN(CC)c1ccc(C(=O)NN=C(C)c2ccc(OC)c(OC)c2)cc1
→ 9.6 | 0.642
COc1cc(C=NNC(=O)Cc2ccccc2)ccc1Oc1ccc([N+](=O)[O-])cc1[N+](=O)[O-]
→ 5.4 | 0.705
Cc1cc(NN=Cc2ccc(Cl)cc2Cl)nc(NCc2ccccc2)n1
→ -15.8 | 0.686
CCn1c2ccc(C(C)=NO)cc2c2cc(C(C)=NO)ccc21
→ -4.0 | 0.781
CC(=O)Nc1cccc(C(=O)NN=Cc2ccccc2F)c1
→ 1.0 | 0.695
N#CC(=NNc1cc(Cl)cc(Cl)c1)c1nnc2n1CCCCC2
→ 3.3 | 0.721
S=C(NN=Cc1cccs1)NC1CC2CCC1C2 (centres undefined)
→ 4.2 | 0.671
CC(=O)c1sc(NN=Cc2cccc(O)c2)nc1C
→ -4.5 | 0.682
COc1ccc(-c2nn(-c3ccccc3)cc2C=NNC(=O)c2ccc(Br)o2)cc1
→ -14.4 | 0.789
C=CCNC(=S)NN=C(C)c1cccnc1
→ 0.2 | 0.7
CC(=NNC(=O)c1cc2c(s1)CCC(C)C2)c1ccncc1 (centres undefined)
→ -1.9 | 0.674
Cc1cc(C(=O)NN=Cc2cc(C(C)(C)C)c(O)c(C(C)(C)C)c2)n[nH]1
→ 2.0 | 0.64
CC(C)(C)C(=O)C=c1[nH]c(=O)c(=Cc2ccc(F)cc2)s1
→ 0.2 | 0.703
COC(=O)c1ccc(-c2ccc(C=NN3C(=O)C4C5C=CC(C6CC56)C4C3=O)o2)cc1 (centres undefined)
→ -1.8 | 0.701
CC(=NNC(=O)Cn1cc([N+](=O)[O-])cn1)c1ccc(O)cc1
→ 1.5 | 0.643
CC(=NNC(=O)c1cc(-c2cccc([N+](=O)[O-])c2)n[nH]1)c1ccccc1O
→ 1.8 | 0.673
CC(=NNc1nc(-c2ccccc2O)nc2ccccc12)c1ccccc1
→ 1.5 | 0.699
Cc1ccc(S(=O)(=O)N(CC(=O)NN=Cc2cccs2)c2cccc3cccnc23)cc1
→ 1.5 | 0.746
COc1cccc(C=NN=C(N)c2nonc2N)c1O
→ 4.1 | 0.686
Cc1occc1C(=O)NN=Cc1ccc(Cl)c([N+](=O)[O-])c1
→ 2.3 | 0.672
CN(C)S(=O)(=O)c1cccc(NC(=S)NN=Cc2ccc(O)c(O)c2O)c1
→ 9.2 | 0.711
CCc1ccc(N2CC(C(=O)NN=Cc3ccccc3OC)CC2=O)cc1 (centres undefined)
→ 1.2 | 0.694
COc1cc(C=c2sc(=C(C#N)C(=O)N3CCCC3)n(-c3ccccc3)c2=O)ccc1O
→ 3.7 | 0.803
Cc1cccc(C)c1-n1c(C)cc(C=NNC(=O)c2ccncc2)c1C
→ 9.2 | 0.738
CCOc1ccc(C=NNC(=O)c2ccc(O)cc2)cc1CN1CC2CC(C1)c1cccc(=O)n1C2 (centres undefined)
→ 5.4 | 0.671
CC(C)(C)C(=O)Nc1ccc(C(=O)NN=Cc2ccccc2OC(=O)c2ccccc2)cc1
→ 0.5 | 0.731
N#CC(=NNc1ccccc1F)C(=N)N1CCOCC1
→ 13.6 | 0.631
O=C(NN=Cc1ccccc1Br)c1ccc(CSc2cccc3cccnc23)cc1
→ -34.4 | 0.752
O=C(NN=Cc1ccc(Cl)c([N+](=O)[O-])c1)c1cc(-c2ccc3c4c(cccc24)CC3)n[nH]1
→ 5.5 | 0.716
Cc1ccc(C=NNc2ccnc3cc(Cl)ccc23)c(C)c1
→ -13.4 | 0.632
C=C(C)C1CC=C(C)C(=NNC(=O)CNc2ccc(C)cc2C)C1 (centres undefined)
→ 0.9 | 0.694
CON=C(CS(=O)Cc1ccc(Cl)cc1)c1ccc(Cl)cc1 (centres undefined)
→ -0.7 | 0.698
N#CCCn1cc(C=NO)c(-c2ccc(-c3ccccc3)cc2)n1
→ -1.4 | 0.707

# Next part.
Molecule,UCH37 DUB inh,Ecoli growth
Nc1nonc1-n1nnc(C(=O)NN=Cc2ccccc2Cl)c1CSc1ccccc1,4.5,0.709
CCN1C(=O)CSC1=Nc1nccs1,2.9,0.771
CC(C)(C=NO)/[N+]([O-])=C/c1ccccc1C(F)(F)F,4.0,0.756
COc1cc(C=NNC(=O)COc2c(C)cc([N+](=O)[O-])cc2C)ccc1OC(=O)c1ccccc1Br,3.4,0.704
CC(C)C(NC(=O)c1ccc2c(c1)OCO2)C(=O)NN=Cc1ccco1 (centres undefined),-0.1,0.66
ON=C(c1ccc(Cl)cc1)c1cc2ccccc2o1,4.8,0.625
CC(=NNc1nccnc1Cl)c1ccc(Br)cc1,5.8,0.673
CCOc1ccccc1-c1cc(C(=O)NN=Cc2ccc3c(c2)OCO3)c2ccccc2n1,-6.0,0.721
O=C(CSc1cccc2cccnc12)NN=Cc1ccncc1,-14.8,0.642
Cc1[nH]c2ccccc2c1C=NNC(=O)c1cccc(S(=O)(=O)Nc2cccc(C(F)(F)F)c2)c1,-1.8,0.732
Cc1cccc(C(=O)Oc2c(Br)cc(Br)cc2C=NNC(=O)c2ccncc2)c1,0.9,0.658
CCCC12CN3CCN(CC(C3)C1=NNC(=O)Nc1ccccc1)C2,5.2,0.679
CCOc1ccc(C=NNC(=O)C(OC)c2ccccc2)cc1 (centres undefined),5.9,0.705
Cc1ccc2nc(C)c(C(=O)NN=Cc3ccco3)cc2c1,5.9,0.649
CCOc1ccc(C=NOCC(=O)NCc2ccco2)cc1,0.7,0.694
COCc1cc(=O)[nH]c(N=C(N)Nc2ccc(C)cc2)n1,5.0,0.648
COc1cccc(C(=O)C(C#N)=NNc2cccc(-c3ccnc(C)n3)c2)c1,9.9,0.675
O=C(NN=Cc1ccccc1C(=O)O)c1cc(-c2ccc3c4c(cccc24)CC3)n[nH]1,3.5,0.684
COc1ccc(N2CCN(C(=O)C3CCN(S(=O)(=O)N4CCOCC4)CC3)CC2)cc1,-1.9,0.731
CC(=NNC(=S)Nc1cccc(C)c1)c1ccccc1,0.8,0.729
O=C(NCCc1ccccc1)C(=NO)c1ccccc1,0.3,0.733
O=C(NN=Cc1cc([N+](=O)[O-])ccc1N1CCCCCC1)c1ccccn1,3.3,0.671
NC(=O)c1c(N=Cc2cccs2)sc2c1CCCC2,-16.0,0.664
N#Cc1nc(COc2ccc(Br)cc2)oc1N1CCN(Cc2ccccc2)CC1,3.1,0.779
COc1cc(C=NNC(=O)CC2C(=O)NN=C2C)ccc1O (centres undefined),0.4,0.711
O=C(COc1ccc(Br)cc1)NN=C1SCC(=O)N1Cc1ccco1,-0.4,0.717
COc1ccc(Br)cc1C=NNC(=O)CN1CCN(Cc2ccccc2)CC1,1.6,0.631
COc1cc(C(=O)NN=Cc2cccc(Oc3ccccc3)c2)ccc1O,1.5,0.606
O=C(NN=Cc1ccc(OC(F)F)cc1)c1cccc(S(=O)(=O)N2CCOCC2)c1,-1.0,0.709
COc1ccccc1C=NOCC(=O)NCc1ccc2c(c1)OCO2,4.7,0.72

# Profiles, looked up by structure. Order of values: UCH37 DUB inh	Ecoli growth
# `COc1cccc(C(=O)C(C#N)=NNc2cccc(-c3ccnc(C)n3)c2)c1` reads 9.9	0.675
# `CC(=NNC(=S)Nc1cccc(C)c1)c1ccccc1` reads 0.8	0.729
# `O=C(NN=Cc1cc([N+](=O)[O-])ccc1N1CCCCCC1)c1ccccn1` reads 3.3	0.671

# (next part)
Molecule,UCH37 DUB inh,Ecoli growth
CC(=NNC(=O)C(O)(c1ccccc1)c1ccccc1)c1ccc(NC(=O)CCCC(=O)O)cc1,1.5,0.675
Cc1ccc(C=NNC(=O)Nc2ccccc2)o1,3.4,0.647
O=C(NN=Cc1cn(-c2ccccc2)nc1-c1cc2ccccc2o1)c1c[nH]c2ccccc12,-5.7,0.665
Cc1oc(N=Cc2cccc3ccccc23)c(C#N)c1C,-0.4,0.775
Cc1cc(O)c(C=NNc2ccc(F)cc2)c(=O)o1,2.2,0.612
COc1cc(C=c2sc3n(c2=O)CCCN=3)ccc1O,9.2,0.699
COc1ccc(C=NNC(=O)c2cccnc2)cc1CSc1ccccn1,3.6,0.682
N#Cc1c(N=Cc2cc(Br)cs2)sc2c1CCC2,2.3,0.738
COc1ccccc1C=NNC(=O)CC(=O)NCc1ccccc1,2.7,0.675
CC(=O)Nc1ccc(C(C)=NNC(=O)c2ccc(-c3ccccc3)cc2)cc1,-6.3,0.685
COc1ccc(C=NNC(=O)CNc2n[nH]c(=O)[nH]c2=O)cc1OC,3.4,0.638
COc1ccc(C2C(C(=O)OC(C)C)=C(C)N=c3sc(=Cc4cccs4)c(=O)n32)cc1 (centres undefined),3.7,0.768
O=C(O)c1ccc(NC(=NS(=O)(=O)c2ccc(Cl)cc2)c2ccccc2)cc1,2.1,0.697
CC(CC(=O)Nc1cccc(Br)c1)=NNC(=O)c1ccc(O)cc1O,1.7,0.693
COc1cc(C=NNC(=O)c2ccoc2C)cc(OC)c1OC,1.1,0.71
COc1ccc(CC(=O)NN=C(C)CC(=O)Nc2ccc3c(c2)OCCO3)cc1,1.1,0.657
Cc1ccc2occ(C=NNC(=O)c3ccccc3Br)c(=O)c2c1,-19.2,0.68
CCOc1ccc(C=NNC(=O)c2cc3ccccc3cc2OC)cc1,-11.7,0.686
Cn1c(Cl)c(C=NOC(=O)c2cccc(Cl)c2)c2ccccc21,-0.6,0.749
CCC(C)[C@@H](N)C(=O)NN=Cc1cccc2nccnc12 (some centres undefined),3.7,0.683
CCOc1ccc(N(CC(=O)NN=Cc2cc([N+](=O)[O-])ccc2Cl)S(C)(=O)=O)cc1,5.8,0.733
COc1ccc(C=NNC(=O)c2cc(-c3cccc(C)c3)nc3ccccc23)cc1O,3.0,0.684
COc1ccc(N(CC(=O)NN=C(C)c2ccc(C)cc2)S(=O)(=O)c2ccccc2)cc1,2.5,0.728
Cc1ccc(C=NNC(=O)c2cc(C)oc2C)cc1,2.1,0.675
CC1(C)CC(=O)CC(=NNC(=O)C2C3CCCCC32)C1 (centres undefined),0.6,0.667
COc1cc(C=NNC(=O)c2ccc(COc3ccccc3Cl)o2)cc(Br)c1O,9.7,0.698
Fc1cccc(CON=Cc2c(-c3ccccc3)nc3ccc(Cl)cn23)c1,-68.3,0.649
